Bioassay records from PubChem BioAssay.
GIV-Gai inh: inhibitors of GIV GBA-motif binding to rat Galpha-i3 | P08753 | Galpha-i3/FITC-GIV peptide fluorescence polarization, 90 min; active compounds read low; scaled: aluminum fluoride 0%, vehicle 100% | percent of control (FP), % (concentration not given with the values) | actives 0.42% (n = 210,000) | AID 1224905;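 active means replicate mean at 85% of control or lower, very high polarization wells dropped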;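 further: wells of about 15 µL received 100 nL stock; the first replicate is given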
Target sequence (P08753 whole entry, looked up): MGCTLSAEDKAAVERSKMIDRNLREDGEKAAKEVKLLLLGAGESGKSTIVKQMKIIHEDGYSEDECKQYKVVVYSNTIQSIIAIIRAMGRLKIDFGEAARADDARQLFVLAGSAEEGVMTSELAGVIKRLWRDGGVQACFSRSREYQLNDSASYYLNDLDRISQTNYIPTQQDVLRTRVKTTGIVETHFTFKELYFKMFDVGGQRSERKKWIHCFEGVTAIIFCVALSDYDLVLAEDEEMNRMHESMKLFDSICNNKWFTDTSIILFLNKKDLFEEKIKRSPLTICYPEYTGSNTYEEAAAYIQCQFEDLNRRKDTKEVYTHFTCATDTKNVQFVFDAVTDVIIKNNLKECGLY
* = called active by the depositor. Not all compounds are listed; rates above refer to the full screens.

SMILES	GIV-Gai inh
CC(C)n1c(N2CCN(C(=O)c3cnccn3)CC2)cc(=O)n(C(C)C)c1=O	107
CCOc1ccc(OCC)c(NS(=O)(=O)c2cc(-c3cc(CC)no3)cs2)c1	106
Cc1ccccc1N1S(=O)(=O)c2ccccc2S1(=O)=O	107
O=C(NC1CCCCC1)c1cccn2c(-c3ccc(F)cc3)nnc12	103
CCOC(=O)c1c(C)oc2ccc(N(C(=O)c3ccc([N+](=O)[O-])cc3)S(=O)(=O)c3ccc(Cl)cc3)cc12	124
CCCc1[nH]n(-c2ccc(F)cc2)c(=O)c1C=NCCc1ccccc1	106
O=C(NCc1ccc2c(c1)OCO2)c1cc(S(=O)(=O)N2CCOCC2)ccc1Sc1ccc(Br)cc1	101
O=C(CSc1ncccc1C(=O)O)Nc1ccc(Br)cc1	107
COc1ccc(OC)c(CNC(=O)c2ccc(-c3ccc(S(=O)(=O)N4CCCC4)cc3)cc2)c1	98
CCOC(=O)c1ccc(NC(=O)CSc2nnc(NC(=O)COc3ccc(Cl)cc3)s2)cc1	111
COC(=O)C1C(=O)NC(SCC(=O)Nc2cc(OC)c(Cl)cc2OC)=C(C#N)C1c1ccccc1OC (centres undefined)	122
Cc1ccc(-c2nc3ccccc3c3nnc(SCC(=O)NC4CC4)n23)cc1	101
COc1cc(C2Nc3ccc4ncccc4c3C3=C2C(=O)CC(C)(C)C3)cc(OC)c1OC (centres undefined)	100
Cc1ccc(Nc2ncnc3c2cnn3C)c(C)c1	94
N#CC1=C(N)N(c2ccc([N+](=O)[O-])cc2)C2=C(C(=O)CCC2)C1c1ccc(Br)s1 (centres undefined)	110
CN1C(=O)c2ccccc2Sc2cc(-c3noc(-c4ccnn4C)n3)ccc21	100
CCSc1sc(CC)cc1C1C(C(=O)Nc2ccccn2)=C(C)NC2=C1C(=O)CC(C)(C)C2 (centres undefined)	101
Cn1c(=O)c2nc(S(=O)(=O)CCC(=O)Nc3cccc(Br)c3)n(C)c2n(C)c1=O	100
COC(=O)c1ccc2c(=O)n(-c3ccc(OC)cc3)c(N3CCSC3)nc2c1	99
CC(C)(C)C(=O)Nc1ncnc2oc(-c3ccccc3)c(-c3ccccc3)c12	111

The list goes on; it opens with the three that closed the last part.
SMILES	GIV-Gai inh
Cn1c(=O)c2nc(S(=O)(=O)CCC(=O)Nc3cccc(Br)c3)n(C)c2n(C)c1=O	100
COC(=O)c1ccc2c(=O)n(-c3ccc(OC)cc3)c(N3CCSC3)nc2c1	99
CC(C)(C)C(=O)Nc1ncnc2oc(-c3ccccc3)c(-c3ccccc3)c12	111
COc1ccc2c(c1)c(CC(=O)N1CCC(C(N)=O)CC1)c(C)n2C(=O)c1ccc(Cl)cc1	108
Cc1ccc(-c2nc(C=Nc3cccc(C(=O)N(C)c4ccccc4)c3)c(O)o2)cc1	109
CC(C)CCCC(C)C1CCC2C3CC=C4CC(OC(=O)CCC5CCCCC5)CCC4(C)C3CCC12C (centres undefined)	108
C=CCc1cccc2cc(C(=O)Nc3cccc4c3C(=O)c3ccccc3C4=O)c(=O)oc12	104
COc1ccc(OC)c(N=c2ssc3c2-c2ccccc2NC3(C)C)c1	114
CCOc1ccc(C2(O)CN(c3cccc(C)c3)C3=[N+]2CCCS3)cc1 (centres undefined)	98
O=C(CSc1nc(=O)n(Cc2ccncc2)c2c1CCC2)Nc1nccs1	106
COc1ccc(C(=O)Nc2cc(C(=O)Nc3ccc4c(c3)OCCO4)ccc2N2CC3CC(C2)c2cccc(=O)n2C3)cc1 (centres undefined)	117
Cc1cccn2c(NC(=O)c3ccc(Br)cc3)c(-c3ccccc3)nc12	105
COc1ccc(C2C(N3C(=O)c4c(Cl)c(Cl)c(Cl)c(Cl)c4C3=O)C(=O)N2c2ccc(C)c(C)c2)cc1Br (centres undefined)	107
Cc1cc(C2CCCN2C(=O)c2cc(C3CC3)on2)on1 (centres undefined)	105
CCc1ccc(C2(O)CC(C(F)(F)F)=NN2C(=O)c2cccc(Br)c2)cc1 (centres undefined)	115
CCC(=O)N1CCc2cc(N3CC(C(=O)N4CCCN(C)CC4)CC3=O)ccc21 (centres undefined)	102
CCN(CC)c1ccc2cc(-c3nnc(NCc4ccc(F)cc4)s3)c(=O)oc2c1	93
Cc1ccccc1CNC(=O)C1(C)CCCN(C(=O)NCCC(C)C)C1 (centres undefined)	109
CCCS(=O)(=O)c1c(S(=O)(=O)CCC)c2cc(-c3ccncc3)ccn2c1C(=O)c1ccc(F)cc1	105
COc1ccc(-c2nc3c4ccccc4c4ccccc4c3[nH]2)cc1OC	107
O=C1CCN(C(=O)c2ccc(Cl)cc2Cl)c2ccccc2N1	110
CC1(C)CC(=O)C2=C(C1)c1c(ccc3ccccc13)NC2c1cccc([N+](=O)[O-])c1 (centres undefined)	114
O=C(NCCc1csc(-c2ccccc2)n1)[C@H]1CCCN1C(=O)Cc1cccc(F)c1	100
C#CCOc1ccc(C2Nc3ccc(C)cc3[C@H]3OCCC[C@@H]23)cc1 (some centres undefined)	102
CC(C)c1nnc(-c2ccsc2)o1	110
COCCCNC(=O)C(=O)Nc1cccc(C(F)(F)F)c1	112
O=C(CSC1=NC(=O)C(Cc2ccccc2)C(=O)N1)Nc1cccc2ccccc12 (centres undefined)	108
N#Cc1c(NC(=O)c2nc(-n3cnnc3)ccc2Br)sc2c1CCCC2	103
CCc1nc(-c2cc(S(=O)(=O)Nc3cc(C)ccc3C)c(C)s2)cs1	103
Cc1ccc(N2C(=O)/C(=C/c3ccc(-c4ccc([N+](=O)[O-])cc4)o3)C=C2c2ccccc2)cc1C	118
COc1ccc(-c2nc3ccccc3c3nnc(SCC(N)=O)n23)cc1	102
Cc1ccc(C2CCCCCN2S(=O)(=O)c2ccc(Br)s2)s1 (centres undefined)	97
COc1ccc(NC(=O)N2CCCN(c3nc4cc(Br)ccc4n4cccc34)CC2)cc1	104
CNC(=O)N1c2ccccc2C=Cc2ccccc21	111
Cc1ccc(Oc2ccc(-c3noc(CCNS(=O)(=O)c4ccc(C)cc4)n3)cc2)cc1	105
CCCCN(CC)C(=O)CSc1nc2ccccc2c(=O)n1CC1CCCO1 (centres undefined)	96
O=S(=O)(c1cc(-c2nc(-c3ccc(Cl)cc3)no2)cs1)N1CCCC1	102
Cc1cc(C)n2ncc(-c3ccc(C)c(S(=O)(=O)NCc4ccc5c(c4)OCO5)c3)c2n1	101
COc1ccc(/C(O)=C2/C(=O)C(=O)N(C)C2c2ccc(OC)cc2OC)cc1 (centres undefined)	105
Cn1c(=O)n(CC(=O)N2CCCC2)c(=O)c2cc(S(=O)(=O)N3CCc4ccccc43)ccc21	99
Cc1c(C(=O)Nc2ccccc2C(F)(F)F)sc2nc(SCC(=O)c3ccccc3)n(Cc3ccccc3)c(=O)c12	110
Cc1cccc(N2CCN(c3cc(NCCO)c([N+](=O)[O-])c4nonc34)CC2C)c1 (centres undefined)	102
Cc1[nH]nc2nc(SCc3cc(=O)n4ccccc4n3)n(-c3ccc(Oc4ccccc4)cc3)c(=N)c12	102

For convenience, some entries already given.
SMILES	GIV-Gai inh
CCc1nc(-c2cc(S(=O)(=O)Nc3cc(C)ccc3C)c(C)s2)cs1	103
Cc1ccc(N2C(=O)/C(=C/c3ccc(-c4ccc([N+](=O)[O-])cc4)o3)C=C2c2ccccc2)cc1C	118
COc1ccc(-c2nc3ccccc3c3nnc(SCC(N)=O)n23)cc1	102

The results go on:
SMILES	GIV-Gai inh
COc1ccc(CCNc2nc(SCc3cc(=O)n4ccccc4n3)nc3ccccc23)cc1OC	115
Cc1cccc(-c2noc(-c3cn(CC(=O)NCc4ccc(F)cc4)c4nc(C)ccc4c3=O)n2)c1	134
Cn1c(SCCOc2ccccc2Cl)nnc1-c1ccc2c(c1)OCCCO2	106
COc1ccc(CCn2c(-c3ccc(Cl)cc3)csc2=Nc2ccc(F)cc2)cc1OC	112
Cc1nc(-c2csc(S(=O)(=O)N3CCCC(C(=O)NC(C)C)C3)c2)no1 (centres undefined)	108
COC(=O)C1=C(C(=O)OC)SC(=C2C(=S)C(C)(C)N(C(=O)CN3C(=O)CCC3=O)c3cc(OC)ccc32)S1	111
Cc1ccc(N2COc3ccc4c(C)cc(=O)oc4c3C2)c(C)c1	105
Cc1cc(C)c(NS(=O)(=O)c2cc(-c3nc(C)cs3)sc2C)c(C)c1	99
Cc1cccc(NC(=O)C2CCN(Cc3noc(-c4ccc(F)cc4)n3)CC2)c1	108
O=c1[nH]c(-c2cccc(O)c2)nc2sc3c(c12)CCCC3	94
NC(=O)C1CCN(C(=O)c2ccc3c(=O)n(C4CCCCC4)c(SCc4ccccc4F)nc3c2)CC1	111
O=C(NCc1ccccn1)c1ccc2c(c1)[nH]c(=S)n1c3ccccc3nc21	109
C=Cc1ccc(CSc2ccc(-n3nc4c(c3C)CCC4)nn2)cc1	102
COCc1cc(C)nc(SCC(=O)N(c2ccccc2)c2ccccc2)c1C#N	104
COc1ccc(Cl)cc1N1C(=O)CSC1c1cc2c(cc1[N+](=O)[O-])OCO2 (centres undefined)	120
Cc1ccc(NC(=O)c2sc3ncn(CC(=O)Nc4cccc(C(F)(F)F)c4)c(=O)c3c2C)cc1F	99
COC(=O)c1ccc2c(=O)n(CCc3ccc(S(N)(=O)=O)cc3)c(SCc3cc(F)cc4c3OCOC4)nc2c1	110
CCc1ccc(N/C(SCc2ccc(C)cc2C)=C(/C#N)C(=O)NCc2ccco2)cc1	105
CCOc1ccccc1N/C(SCc1ccccc1C)=C(/C#N)C(=O)NCc1ccccc1	108
COc1ccc(-c2cnn3c(C)cc(C)nc23)cc1S(=O)(=O)NC(C)c1ccccc1 (centres undefined)	101
Cc1cc(OCc2nc(-c3ccc(NC(=O)c4ccco4)cc3)no2)ccc1Cl	104
C=CCc1cccc2cc(C(=O)N3CCN(c4ccccc4OC)CC3)c(=O)oc12	101
O=c1oc2ccccc2cc1C1=Nn2c(nnc2-c2ccc(Br)cc2)SC1	117
O=C(Nc1cc(F)ccc1F)c1nc2ccccc2nc1N1CCCC1	113
O=C(OCCOCCN=C1NS(=O)(=O)c2ccccc21)c1ccccc1Br	114
CC(C)C(=O)NC1CCN(C(=O)C2CCC2)C1 (centres undefined)	98
Cc1cnc2c(c1SCCC(C)C)c(=O)n(C)c(=O)n2C	102
Cc1cc(N(C)C)nc(N2CCN(C(=O)c3ccc(Br)cc3)CC2)n1	104
Cc1cc2c(cc1C)N(C(=O)c1ccc3c(c1)OCO3)C(C)(C)c1ssc(=S)c1-2	103
CN(C)c1ccc(/C=C2\c3cc([N+](=O)[O-])ccc3-c3c2cc([N+](=O)[O-])cc3[N+](=O)[O-])cc1	113
O=C(Cc1ccccc1)c1ccc(OC2OC(CO)C(O)C(O)C2O)cc1O (centres undefined)	102
CCNC(=O)C1CCCN(c2nc3ncn(CC(=O)Nc4ccccc4)c(=O)c3s2)C1 (centres undefined)	100
Cc1cc(F)ccc1NC(=O)C1Oc2ccccc2NC1=O (centres undefined)	102
O=C(COC(=O)C(Cc1c[nH]c2ccccc12)NC(=O)c1ccco1)c1ccc(Cl)cc1 (centres undefined)	105
O=C(COC(=O)c1ccc(NC(=O)c2ccccc2Br)cc1)c1ccc(Br)cc1	107
O=C(Nc1ccc(-c2cn3c(C(=O)N4CCOCC4)csc3n2)cc1)C1CC1	107
CCOC(=O)c1ccc2nc(NC(=O)c3ccc4c(c3)OCCO4)sc2c1	102
CC(=O)NC1CCN(C(=O)C2CCCC2)C1 (centres undefined)	98
O=C1N(Cc2c[nH]c3ccccc23)c2ccccc2C12OCCO2	101
CN(CCc1ccccn1)c1ncnc2c1CCC2	103
CCOc1ccccc1NS(=O)(=O)c1ccccc1-c1nc(-c2ccc(F)cc2)no1	102
Nc1nc(SCC(=O)NCCc2ccc(S(N)(=O)=O)cc2)n[nH]1	109
O=S(=O)(c1cc(-c2nnc(-c3ccc(F)cc3)o2)ccc1Cl)N1CCCC1	106
CCOC(=O)C1=C(N)N(c2cccc(C)c2)C2=C(C(=O)CCC2)C1c1cc(OC)c(OC)c(OC)c1 (centres undefined)	109
COCc1cc(C)nc2sc3c(=O)n(-c4cc(Br)cc5cccnc45)nnc3c12	113
COc1ccc(C2NCCc3c2[nH]c2ccccc32)cc1CSc1nnc(-c2ccccc2)o1 (centres undefined)	103
COc1cccc(C2=NN3C(C2)c2cc(Cl)ccc2OC3c2ccc(OC)c(OC)c2)c1 (centres undefined)	108
Cc1ccc(-c2noc(-c3ccccc3S(=O)(=O)Nc3ccc(S(N)(=O)=O)cc3)n2)cc1	100
O=c1n(CC2CCCO2)nc2ccc(S(=O)(=O)N3CCSCC3)cn12 (centres undefined)	98
Brc1ccc(Nc2nc(-c3cccnc3)nc3ccccc23)cc1	99
O=C(NCc1ccc(F)cc1)c1ccc2c(=O)n(CCc3c[nH]c4ccccc34)c(=S)[nH]c2c1	104
Cn1c(=O)c([N+](=O)[O-])c(NCc2ccccc2)c2ccccc21	106
CCOc1ccc(-c2[nH]ncc2CN2CCCC2c2c(C)noc2CC)cc1 (centres undefined)	118
COCCNC(=O)c1cc2nc(-c3ccc(Br)cc3)cc(C(F)(F)F)n2n1	102
COc1cccc(-c2csc(Cc3nc(-c4ccc(Br)cc4)no3)n2)c1	104

7 compounds from above, ordered by length of the SMILES, low to high:
SMILES	GIV-Gai inh
Nc1nc(SCC(=O)NCCc2ccc(S(N)(=O)=O)cc2)n[nH]1	109
CCOc1ccc(-c2[nH]ncc2CN2CCCC2c2c(C)noc2CC)cc1 (centres undefined)	118
COCCNC(=O)c1cc2nc(-c3ccc(Br)cc3)cc(C(F)(F)F)n2n1	102
COCc1cc(C)nc2sc3c(=O)n(-c4cc(Br)cc5cccnc45)nnc3c12	113
CCOc1ccccc1NS(=O)(=O)c1ccccc1-c1nc(-c2ccc(F)cc2)no1	102
Cc1ccc(-c2noc(-c3ccccc3S(=O)(=O)Nc3ccc(S(N)(=O)=O)cc3)n2)cc1	100
CCOC(=O)C1=C(N)N(c2cccc(C)c2)C2=C(C(=O)CCC2)C1c1cc(OC)c(OC)c(OC)c1 (centres undefined)	109
